Source: PubChem BioAssay
CtBP-E1A blk – qHTS Assay for Inhibitors of the CtBP/E1A Interaction. CtBP / adenovirus E1A interaction (AlphaScreen). AlphaScreen GST-E1A/His-CtBP binding, 1536-well; hits give low values; control for the full effect not named in the record. activity change, % (test concentration not listed). actives 0.49% (n = 340,000). AID 651724, 2012; in the data active means activity change below about -65%; inconclusive means about -30% to -65%; inactive means above about -30%; note: % is set by controls: 0 for no effect and ±100 for the full control effect; compound concentration not given in the record
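GST-E1A and His-tagged CtBP (125 nM each as 5X stock) were preincubated with pin-transferred compound for 2 h at 37 °C in the dark, then glutathione donor and nickel acceptor beads were added for 1 h before AlphaScreen reading.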
D2 PAM – Beta-Arrestin HTS for Positive Allosteric Modulators of the Human D2 Dopamine Receptor: Potentiators | DiscoveRx D2 beta-arrestin cells, luminescence, 90 min; 100% = 57 uM dopamine signal | potentiation, % (test concentration not listed) | actives 0.23% (n = 360,000) | AID 624464, 2012; active = potentiation of 50% or more; inconclusive = 30% to 50%; inactive = 30% or less;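 note: compound concentration not given in the record; tested on top of an EC20 dose of dopamine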
Target sequence (P14416 whole entry, looked up): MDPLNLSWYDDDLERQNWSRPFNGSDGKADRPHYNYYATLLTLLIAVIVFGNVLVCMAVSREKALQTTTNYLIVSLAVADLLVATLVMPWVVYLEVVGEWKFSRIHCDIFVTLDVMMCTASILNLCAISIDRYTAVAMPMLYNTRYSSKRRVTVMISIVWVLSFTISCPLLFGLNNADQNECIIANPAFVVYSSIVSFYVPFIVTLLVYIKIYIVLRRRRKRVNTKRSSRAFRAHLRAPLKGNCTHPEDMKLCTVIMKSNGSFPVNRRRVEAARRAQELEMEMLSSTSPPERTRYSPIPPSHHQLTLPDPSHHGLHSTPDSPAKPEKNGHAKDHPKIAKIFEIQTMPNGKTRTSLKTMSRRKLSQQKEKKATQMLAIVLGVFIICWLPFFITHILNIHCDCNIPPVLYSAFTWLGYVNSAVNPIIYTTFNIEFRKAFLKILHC
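PathHunter beta-arrestin assay in DiscoveRx D2 cells. Compounds were added with an EC20 of dopamine (50 nM final) for 90 min at 37 deg C. Luminescence was read 1 h after detection reagent, with 57 uM dopamine as the EC100 control.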
TRPV1 PAM – HTS Assay for Compounds that Act as Potentiators of the Vanilloid Receptor 1 | Transient receptor potential cation channel subfamily V member 1 (Homo sapiens), Q8NER1 | AID 540277, 2011 | TRPV1-expressing cells, Fluo-8 calcium influx, capsaicin EC20 potentiation; host cell line not named in the record; control for the full effect not named in the record | actives 0.02% (n = 320,000) | potentiation, % at 8.33 µM; active means potentiation above 80%; inconclusive means 30% to 80%; inactive means below 30%; note: 0% is about no effect
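TRPV1-expressing cells were cultured overnight at 35.5C and loaded with Fluo-8 calcium dye for 40 to 90 min at room temperature. After a 10 s baseline, compound was added and calcium influx was read kinetically for 3 min (ex 480/em 520 nm).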
TRPML1 ag – qHTS for Agonists of the Human Mucolipin Transient Receptor Potential 1 (TRPML1). activation, % (concentration not given with the values). AID 624414, 2012. actives 0.12% (n = 410,000). Mucolipin-1 (Homo sapiens), Q9GZU1. TRPML1-expressing cells, Ca2+ dye fluorescence, FDSS; host cell line not named in the record; reference of the full effect not given here; in the data active = activation above about 50%; inconclusive = about 30% to 50%; inactive = below about 30%; note: 0% is about no effect; the text of the record puts the active cut at 80%
Target sequence (Q9GZU1 whole entry, looked up): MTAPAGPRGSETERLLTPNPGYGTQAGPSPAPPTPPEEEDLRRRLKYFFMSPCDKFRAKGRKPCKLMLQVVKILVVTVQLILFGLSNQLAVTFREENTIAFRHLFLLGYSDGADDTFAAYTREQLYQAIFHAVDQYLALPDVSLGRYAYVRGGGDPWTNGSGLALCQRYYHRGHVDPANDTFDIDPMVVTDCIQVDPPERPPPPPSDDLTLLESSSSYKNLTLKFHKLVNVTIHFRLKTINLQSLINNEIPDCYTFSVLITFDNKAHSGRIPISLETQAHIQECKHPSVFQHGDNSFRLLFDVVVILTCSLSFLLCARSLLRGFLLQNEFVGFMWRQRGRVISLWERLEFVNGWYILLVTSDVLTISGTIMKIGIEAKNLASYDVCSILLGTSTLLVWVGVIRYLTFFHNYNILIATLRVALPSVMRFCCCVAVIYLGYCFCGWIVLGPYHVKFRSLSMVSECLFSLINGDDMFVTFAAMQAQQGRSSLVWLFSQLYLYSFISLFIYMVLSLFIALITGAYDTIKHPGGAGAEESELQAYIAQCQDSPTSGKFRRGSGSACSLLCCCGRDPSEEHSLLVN
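TRPML1-DL cells, Tet-induced overnight (~16 h, 37 degrees C), loaded 45-90 min at room temperature with Ca8 no-wash calcium dye plus quencher. FDSS fluorescence: 10 s baseline, compound pin-transfer, 110 s agonist read, then EC80 54-4 (4uM final) and 110 s antagonist read.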
TRPML1 inh – qHTS for Inhibitors of the Human Mucolipin Transient Receptor Potential 1 (TRPML1). Mucolipin-1 (Homo sapiens), Q9GZU1. TRPML1-inducible cells, Ca2+ dye fluorescence, FDSS; hits give low values; inhibition of EC80 agonist-evoked calcium signal. activity change, negative = inhibition, % (no concentration beside the values). actives 0.02% (n = 390,000). AID 624415, 2012; in the data active means activity change below about -50%; inconclusive means about -30% to -50%; inactive means above about -30%;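 note: stimulus is agonist 54-4 at its EC80 concentration; % is set by controls: 0 for no effect and ±100 for the full control effect; compound concentration not given in the record; the text of the record puts the active cut at -80%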
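TRPML1-DL cells, Tet-induced overnight (~16 h, 37 °C) at 1,500 cells/well, were loaded with Ca8 no-wash dye plus quencher for 45-90 min at room temperature. Compounds were pinned during FDSS kinetic reading; agonist 54-4 at EC80 (4 uM final) then added.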
Six1-Eya2 inh – qHTS Assay for Inhibitors of the Six1/Eya2 Interaction. activity change, % (test concentration not listed). AlphaScreen GST-Six1/His-Eya2 binding, biochemical; hits give low values; control for the full effect not named in the record. actives 0.56% (n = 360,000); in the data active = activity change below about -65%; inconclusive = about -30% to -65%; inactive = above about -30%; note: % is set by controls: 0 for no effect and ±100 for the full control effect; compound concentration not given in the record
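AlphaScreen luminescence read after one hour at 37 °C in darkness. Pin-transferred compounds met GST-Six1 and His-Eya2 protein (5X stock 250 nM/500 nM) plus glutathione donor and Ni-chelate acceptor beads (5X, 50 ug/mL).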
* marks the source's active call; other numbers are inactive results; ? = inconclusive; . = no result given.

SMILES	CtBP-E1A blk	D2 PAM	TRPV1 PAM	TRPML1 ag	TRPML1 inh	Six1-Eya2 inh
CCN(CC)C(=O)c1cc2c(=O)c3cc(Cl)ccc3oc2nc1C	15	-3	-9	-0.5	-8	5
CSCC[C@H](NS(=O)(=O)c1ccc(C)cc1)C(=O)N1CCC(C(=O)N[C@@H](Cc2ccccc2)C(=O)O)CC1	2	-20	-13	.	.	2
CC(=O)Nc1cccc(C(=O)OCC(=O)c2ccc3c(c2)OCO3)c1	-4	-20	25	0.3	20	0
COc1cccc(OCCNC(=O)c2cccc(OC)c2)c1	2	-17	25	-1.9	-4	-1
O=c1c2cc(N3CCOCC3)ccc2[nH]c(=S)n1CCCN1CCCCC1	4	-5	5	-0.9	-2	-3
O=C(CCNC(=O)c1ccc(Br)cc1)NNC(=O)c1ccccc1O	-5	-2	-8	-0.1	3	-24
COc1cc2c(C(=O)NC3CCCCCC3)cn(C)c(=O)c2cc1OC	-1	18	-13	0.9	?	1
CCN(CC(=O)Nc1cc(Cl)ccc1C)C(=O)COc1cccc2c1OC(C)(C)C2	5	-30	6	0.0	5	2
CC(c1ccccc1)C1CC(=O)N(c2ccc([N+](=O)[O-])cc2)C1=O (stereo not drawn)	.	23	-9	.	.	4
Cc1cccc(OCC(O)CNC(=O)c2ccccc2C(=O)O)c1 (stereo not drawn)	3	-14	.	-0.9	-4	-1
Cc1ccn2c(C(=O)CSc3ccc(Cl)cc3)c(C)nc2c1	-10	-4	1	2.3	18	-5
CCOc1ccc(S(=O)(=O)NCCC(=O)NCC(c2cccs2)N(C)C)cc1 (stereo not drawn)	8	-11	10	-0.3	-14	-8
CCCCN1CNC(=S)N(c2ccc(C(=O)OCC)cc2)C1	-6	-10	-7	-0.3	-17	4
NC(=O)CC(NC(=O)c1ccc(Br)cc1)c1ccc(N2CCN(c3ccc(F)cc3)CC2)c([N+](=O)[O-])c1 (stereo not drawn)	-11	-1	-2	-0.7	14	-7
O=c1[nH]c(=S)[nH]c2c1C(c1ccc(F)cc1)OC(CCc1ccccc1)C2 (stereo not drawn)	4	.	.	-0.5	.	-5
COC(=O)c1oc2ccc(Br)cc2c1NC(=O)CN1CCN(C)CC1	-1	-6	.	1.1	10	4
CCn1c(=O)c(C(=O)NC(C)c2ccccc2)c(O)c2ccccc21 (stereo not drawn)	.	-7	?	.	.	11
CCCNC(=S)N1CCN(c2nc(-c3cccc(OC)c3)cs2)CC1	-2	-8	-1	0.8	3	-20
Cc1ccc(OCC(=O)N/N=C/c2cccnc2)cc1C	4	-8	-3	0.3	0	4
CC(C)(C)c1ccc(C(=O)Nn2c(CCC(=O)O)ccc2-c2cccs2)cc1	6	-11	9	2.8	6	-1
COc1ccc(-c2csc(NC(=O)CCNC(=O)c3ccco3)n2)cc1	-2	-3	.	-0.9	-5	-13
COc1ccc(/C=C2\SC(=S)N(CC(=O)NC3C=CS(=O)(=O)C3)C2=O)cc1 (stereo not drawn)	1	1	22	1.2	-21	14
COC(=O)N1CCCc2cc(C)ccc21	-7	-4	0	0.0	-3	7
Cc1c[n+](CC(=O)c2ccccc2)c(C)cn1	4	-6	14	1.0	-3	1
COc1ccccc1N(C)S(=O)(=O)c1ccc(C(=O)Nc2ccc(N3CCOCC3)cc2)cc1	?	-1	-27	-0.1	55	-20
Cn1c(SCc2ccc(Br)cc2)nnc1-c1ccncc1	-3	-14	-15	0.6	-6	4
N#Cc1cccc(-n2c(-c3ccccc3)nnc2-c2ccccc2)c1C#N	8	-11	-7	1.3	1	7
CCN(Cc1ccncc1)C(=O)c1cccs1	10	-5	-12	-0.1	-10	3
COc1ccc(-n2c(C)cc(/C=C3\C(=N)N4N=C(CC(=O)N5CCOCC5)SC4=NC3=O)c2C)cc1	.	-5	-14	-0.7	9	-18
C/C(=C\c1ccccc1)CN1CCN(C(C)C)C(CCO)C1 (stereo not drawn)	-2	-11	15	0.1	10	2
CCOC(=O)CNC(=O)CNC(=O)c1ccc(OC)cc1	2	3	-24	0.1	-2	3
CCOc1cc(C(=O)N(Cc2ccccc2)c2ccc(C)cc2)ccc1OCC(=O)N1CCOCC1	6	-2	.	-0.5	8	2
Cc1cc(C)c(C)c(S(=O)(=O)N[C@@H](C)C(=O)OCc2cc(=O)n3cc(Br)ccc3n2)c1C	-2	?	8	-0.4	-8	-5
COc1cc2sc(-c3ccccc3OC)c(-c3ccc(O)cc3)c2cc1OC	-6	-2	.	-0.2	2	-11
Cc1ccc(OC(=O)COc2ccccc2C)c(-n2nc3ccccc3n2)c1	28	-7	-7	0.0	-6	19
CCc1cc2c(=O)n(-c3ccccc3)cnc2s1	-1	-8	1	9.1	-13	6
O=C(c1cccnc1)N1CCc2ccccc21	-1	-9	-8	0.1	3	4
C[C@H](CO)N1C[C@H](C)[C@@H](CN(C)S(C)(=O)=O)Oc2c(NC(=O)C3CCCCC3)cccc2C1=O	-10	-1	.	0.0	-28	-6
CCSc1nnc(NC(=O)CSc2nnc(-c3c[nH]c4ccccc34)n2CC)s1	-11	-5	27	0.5	34	-8
CC(=O)c1c(C)[nH]c(C(=O)NNC(=O)c2ccc(Br)cc2)c1C	.	-1	.	-0.4	-8	-4
O=C(CSc1nc2[nH]ncc2c(=O)[nH]1)NCc1ccc(F)cc1	1	-19	5	-0.1	-3	-7
Cc1c(-c2ccccc2)oc2c(C(=O)OCC(=O)Nc3cccc(F)c3)cccc2c1=O	.	1	-2	-1.2	-5	3
CC1c2[nH]c3ccccc3c2CCN1C(=O)Nc1ccccc1 (stereo not drawn)	-20	-7	-20	1.1	4	-16
COC(C[C@H]1O[C@H]1[C@H](O)COCc1ccccc1)OC	.	-3	-17	-0.5	-6	1
COc1cc(C(=O)N(C)CC2CCN(CCc3cccc(C(F)(F)F)c3)CC2)ccc1C	-4	-23	5	0.0	10	-4
O=C1CN(C(=O)CSc2nnnn2-c2ccc(Cl)cc2)c2ccccc2N1	1	-23	7	0.9	23	3
Cc1nc(SCC(=O)c2ccccc2)c([N+](=O)[O-])[nH]1	-1	-15	3	-0.2	-11	-2
Cc1ccc(NS(=O)(=O)c2ccc(NC(=O)c3cccc(NC(=O)C(C)C)c3)cc2)cc1	0	1	-5	0.8	-3	-4
O=C(Nc1nccs1)C1CCN(S(=O)(=O)c2ccc(F)cc2)CC1	54	-1	-10	-1.0	6	25
COc1cccc(C(=O)c2c[nH]c(C(=O)NCc3cccs3)c2)c1	0	-25	-5	1.6	7	-1
CN1CCN(C(=O)CCc2nc3ccccc3n2-c2ccccc2)CC1	-11	-9	-18	0.5	21	9
C[C@@]12C(=O)N(c3cccc(Cl)c3)C(=O)N1[C@H](c1ccc(Cl)cc1)[C@@H]1C(=O)N(C3CCCCC3)C(=O)[C@@H]12	-17	-16	5	0.8	-10	-8
CCc1ccccc1NC(=O)CNC(=O)c1cccc(S(=O)(=O)N2CCN(Cc3ccccc3)CC2)c1	-17	-11	28	-0.8	1	2
CCOc1ccc(/C=N/NC(=O)c2ccc3nc[nH]c3c2)cc1OC	-5	3	.	-0.2	0	7
COc1cccc(SCc2noc(C(=O)NCCCN3CCOCC3)c2C(=O)NCCCN2CCOCC2)c1	3	-15	.	-0.3	33	0
CN1/C(=C\C(=O)CSc2nncn2C)C(C)(C)c2ccccc21	0	-6	-9	0.5	30	3
COc1cccc(NC(=O)CN2C(=O)NC(C)(CC(C)C)C2=O)c1 (stereo not drawn)	-2	-6	-4	0.8	0	-4
CCOc1ccc(S(=O)(=O)N2CCC(C(=O)OC(C)C(=O)N3CCOCC3)CC2)cc1 (stereo not drawn)	0	5	-5	-1.2	-12	3
Cc1ccc(NS(=O)(=O)c2ccc(Br)s2)cc1S(=O)(=O)N1CCOCC1	5	-4	11	1.8	2	-2
O=C(Nc1cccc(C(F)(F)F)c1)c1cccnc1NCCc1ccccc1	7	-16	-17	2.1	9	40
Carrying on.
SMILES	CtBP-E1A blk	D2 PAM	TRPV1 PAM	TRPML1 ag	TRPML1 inh	Six1-Eya2 inh
Cc1cccc2nc(CSc3nnc4ccccn34)cn12	7	1	-15	-0.6	-4	3
COCCCn1c(=O)c2ccccc2c2ccccc2c1=O	-1	-15	-12	-0.7	-1	-2
Cc1ccc(/C=N/N=C2/NC(=O)C(CC(=O)N3CCOCC3)S2)cc1 (stereo not drawn)	.	1	-5	2.0	30	6
Cc1ccc(NC(=O)c2cccs2)cc1NC(=O)c1cccc(F)c1	2	-1	?	1.5	12	2
CN(C)c1ccc(Nc2nc(N)c([N+](=O)[O-])c(N3CCOCC3)n2)cc1	?	11	7	-0.4	-12	-29
Cc1ccccc1OCCC(=O)N(CC(=O)Nc1ccccc1C(F)(F)F)Cc1ccco1	-8	-10	-7	4.9	5	2
O=[N+]([O-])c1ccc(-n2nncc2-c2ccccc2)cc1	.	-19	-24	-0.7	1	-11
CC(=O)N1CCc2ccc(N)cc21	-1	-1	.	0.1	-4	6
Cc1ccc(C2CC(c3ccccc3)=NN2c2ccc(S(N)(=O)=O)cc2)cc1 (stereo not drawn)	3	-6	.	1.0	1	48
CCCCNC(=O)CCC(=O)N1CCN(C(c2ccccc2)c2ccccc2)CC1	0	1	-24	1.7	-12	11
CCCCOc1ccc(C(=O)NCC(=O)NCCOc2ccccc2)cc1	-2	-2	2	0.5	-10	10
Cc1c(C(=O)Nc2nc3ccccc3[nH]2)oc2ccccc12	11	-24	-13	1.8	-9	-21

An excerpt of these results, with values under each structure:
Value order: CtBP-E1A blk, D2 PAM, TRPV1 PAM, TRPML1 ag, TRPML1 inh, Six1-Eya2 inh
> Cc1ccc(C2CC(c3ccccc3)=NN2c2ccc(S(N)(=O)=O)cc2)cc1 (stereo not drawn)
 : 3, -6, ., 1.0, 1, 48
> CCCCNC(=O)CCC(=O)N1CCN(C(c2ccccc2)c2ccccc2)CC1
 : 0, 1, -24, 1.7, -12, 11
> CCCCOc1ccc(C(=O)NCC(=O)NCCOc2ccccc2)cc1
 : -2, -2, 2, 0.5, -10, 10

Next part
SMILES	CtBP-E1A blk	D2 PAM	TRPV1 PAM	TRPML1 ag	TRPML1 inh	Six1-Eya2 inh
COc1ccc(-n2c(-c3ccc(Br)cc3)c[n+]3c2CCc2ccccc2-3)cc1	-3	-10	17	2.0	44	1
O=c1cc(N2CCc3ccccc32)[nH]c(=O)n1-c1ccc(Cl)cc1	.	-3	-15	0.9	-7	-1
COc1ccc(C(=O)NC(=S)N2CCCC2)cc1	-11	-9	-6	0.4	45	0
CC(C)(C)c1ccc(OCCOc2ccc(C(C)(C)C)cc2NC=O)c(NC=O)c1	.	21	5	3.6	16	-3

Compounds as they come; any-hit rate near 0.95%.
